# High-throughput results deposited in PubChem BioAssay by National Center for Advancing Translational Sciences (NCATS).
# TRPML1 agonist = qHTS for Agonists of the Human Mucolipin Transient Receptor Potential 1 (TRPML1) | Mucolipin-1 (Homo sapiens), Q9GZU1 | activation, % (test concentration not listed) | 410,000 tested, 0.12% active | TRPML1-expressing cells, Ca2+ dye fluorescence, FDSS; host cell line not named in the record; reference of the full effect not given here | AID 624414, 2012; in the data active = activation above about 50%; inconclusive = about 30% to 50%; inactive = below about 30%; note: 0% is about no effect; the text of the record puts the active cut at 80%
# Target sequence (Q9GZU1 whole entry, looked up): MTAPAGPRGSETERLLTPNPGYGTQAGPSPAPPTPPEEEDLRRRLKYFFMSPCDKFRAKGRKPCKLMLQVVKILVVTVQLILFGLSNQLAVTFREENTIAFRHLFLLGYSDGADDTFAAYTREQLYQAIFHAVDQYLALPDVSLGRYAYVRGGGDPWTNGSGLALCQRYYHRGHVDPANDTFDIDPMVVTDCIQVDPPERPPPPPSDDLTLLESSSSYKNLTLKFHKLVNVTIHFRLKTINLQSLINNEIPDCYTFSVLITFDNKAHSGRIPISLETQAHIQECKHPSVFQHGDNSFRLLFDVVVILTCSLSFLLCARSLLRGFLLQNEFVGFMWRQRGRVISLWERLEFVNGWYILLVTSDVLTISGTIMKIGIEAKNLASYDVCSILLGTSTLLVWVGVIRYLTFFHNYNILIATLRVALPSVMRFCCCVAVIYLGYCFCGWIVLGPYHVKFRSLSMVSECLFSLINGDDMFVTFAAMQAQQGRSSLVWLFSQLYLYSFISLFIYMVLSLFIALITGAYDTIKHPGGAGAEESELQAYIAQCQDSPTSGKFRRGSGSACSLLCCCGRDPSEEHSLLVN
#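 Tetracycline-induced TRPML1-DL cells are seeded and incubated overnight before loading with a no-wash Ca2+ dye and quencher. Agonist activity is taken from the 110 s fluorescence read following compound pin-transfer on an FDSS, before EC80 54-4 challenge.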
# PINK1 modulator = A Quantitative High throughput Screen to Identify Chemical Modulators of PINK1 Expression; PINK1 immunofluorescence, high-content cytometry, 24 h; Potency, µM (doses to about 76.6 µM), for the others: top-dose activation (PINK1 increase), usual class: activators; 410,000 tested, 0.2% active; active = well fitted activation curve with a large enough effect; inconclusive = small, poorly fitted or top-dose-only effect; inactive = flat fitted curve, though single readings scatter; cell line not stated here;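 note: potency is the fitted concentration of half-maximal effect; % of control where 0% means no effect; nearly all actives have a fitted effect of over 65% in size; a mitochondrial uncoupler was the plate control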
#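 Fluorescence from anti-PINK1 antibody, together with nuclear and cell stains, was scanned on a laser-scanning cytometer. Before staining, stable-line cells were incubated 24 hours with compounds at 5 concentrations; primary antibody 12 h at 10 degrees C.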
# TRPML1 inh = qHTS for Inhibitors of the Human Mucolipin Transient Receptor Potential 1 (TRPML1). Mucolipin-1 (Homo sapiens), Q9GZU1. TRPML1-inducible cells, Ca2+ dye fluorescence, FDSS; stronger effect = lower value; inhibition of EC80 agonist-evoked calcium signal. activity change, negative = inhibition, % (concentration not given with the values). 390,000 tested, 0.02% active; in the data active means activity change below about -50%; inconclusive means about -30% to -50%; inactive means above about -30%;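 note: stimulus is agonist 54-4 at its EC80 concentration; % is set by controls: 0 for no effect and ±100 for the full control effect; compound concentration not given in the record; the text of the record puts the active cut at -80%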
#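 Calcium fluorescence in TRPML1-DL cells induced overnight with Tet: a 110 s read after compound pin addition, then a 110 s antagonist read after challenge with 54-4 at 4 uM final (EC80).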
# Six1-Eya2 blk = qHTS Assay for Inhibitors of the Six1/Eya2 Interaction | Homeobox protein SIX1 (Homo sapiens) + Protein phosphatase EYA2 (Homo sapiens), … | AlphaScreen GST-Six1/His-Eya2 binding, biochemical; stronger effect = lower value; control for the full effect not named in the record | activity change, % (no concentration beside the values) | 360,000 tested, 0.56% active | AID 651725, 2012; in the data active = activity change below about -65%; inconclusive = about -30% to -65%; inactive = above about -30%; note: % is set by controls: 0 for no effect and ±100 for the full control effect; compound concentration not given in the record
#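 AlphaScreen luminescence read after one hour at 37 °C in darkness. Pin-transferred compounds met GST-Six1 and His-Eya2 protein (5X stock 250 nM/500 nM) plus glutathione donor and Ni-chelate acceptor beads (5X, 50 ug/mL).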
# D2 PAM = Beta-Arrestin HTS for Positive Allosteric Modulators of the Human D2 Dopamine Receptor: Potentiators; potentiation, % (test concentration not listed); AID 624464, 2012; DiscoveRx D2 beta-arrestin cells, luminescence, 90 min; 100% = 57 uM dopamine signal; D(2) dopamine receptor (Homo sapiens), P14416; 360,000 tested, 0.23% active; active = potentiation of 50% or more; inconclusive = 30% to 50%; inactive = 30% or less;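 note: compound concentration not given in the record; tested on top of an EC20 dose of dopamine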
# Target sequence (P14416 whole entry, looked up): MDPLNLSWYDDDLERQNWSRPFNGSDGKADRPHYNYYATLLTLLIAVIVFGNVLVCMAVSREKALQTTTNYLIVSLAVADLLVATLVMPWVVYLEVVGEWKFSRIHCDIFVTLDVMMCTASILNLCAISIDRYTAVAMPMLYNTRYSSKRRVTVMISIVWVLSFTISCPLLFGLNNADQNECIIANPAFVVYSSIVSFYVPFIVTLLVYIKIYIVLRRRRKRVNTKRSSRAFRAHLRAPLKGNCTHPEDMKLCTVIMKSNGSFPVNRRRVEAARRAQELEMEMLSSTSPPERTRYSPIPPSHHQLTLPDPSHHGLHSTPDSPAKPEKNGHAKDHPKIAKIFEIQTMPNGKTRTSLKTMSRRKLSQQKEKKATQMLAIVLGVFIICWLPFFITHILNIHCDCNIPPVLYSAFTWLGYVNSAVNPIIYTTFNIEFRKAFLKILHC
#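 PathHunter D2 cells, attached overnight at 37 deg C, received compound in DMSO plus dopamine at EC20 (50 nM final) for 90 min at 37 deg C. Beta-arrestin recruitment was read as luminescence after 1 h with detection reagent at ambient temperature.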
# D2 agonist = Beta-Arrestin HTS for Positive Allosteric Modulators of the Human D2 Dopamine Receptor: Agonists; D(2) dopamine receptor (Homo sapiens), P14416; DiscoveRx PathHunter D2 beta-arrestin, luminescence, 90 min; 100% = 57 uM dopamine signal; activation, % (no concentration beside the values); 360,000 tested, 0.084% active; AID 624465, 2012; in the data active = activation above about 40%; inconclusive = about 15% to 40%; inactive = below about 15%; note: compound concentration not given in the record; the text of the record calls up to 30% inactive
#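 Agonist mode: compounds alone added to overnight-plated D2 PathHunter cells for 90 min at 37 C, with 57 uM final dopamine (EC100) defining full response. Beta-arrestin recruitment detected by chemiluminescent reagent, read after 1 h at ambient temperature.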
# * = called active by the depositor; ? = inconclusive; . = no result given; & = joins results of further samples; [ ] = dose if it differs, or a comment.
Structure	TRPML1 agonist	PINK1 modulator	TRPML1 inh	Six1-Eya2 blk	D2 PAM	D2 agonist
CCC1(C)Cc2c(sc3nc(SC)nc(N)c23)CO1 (stereo unspecified)	-0.2	1.1%	2	-10	-8	-0.5
Cn1c(=O)oc2cc(S(=O)(=O)N3CCCC(C(=O)NCCN4CCOCC4)C3)ccc21 (stereo unspecified)	-0.4	0.0%	12	-3	-8	-6.3
COc1ccc(C2C=C(c3ccccc3)Nc3nc(NS(=O)(=O)c4ccc(Cl)cc4)nn32)cc1 (stereo unspecified)	3.1	-0.6%	-20	.	.	.
O=C(CCCc1nc2ccccc2s1)NCc1ccccc1F	1.1	0.6%	30	-1	-2	-3.7
COc1ccc(S(=O)(=O)N2CCC(C(=O)NCC3CCCO3)CC2)cc1 (stereo unspecified)	1.1	0.5%[38.3 µM]	-7	6	-5	-1.1
COC(=O)c1cc2ccccc2c(=O)s1	-0.6	-1.3%	27	0	-4	-2.1
CCOC(=O)c1ccc(NC(=O)c2sc3ccccc3c2Cl)cc1	-0.2	1.0%	19	.	.	.
Cc1ccc(NC2=NCC(=O)N2C2CCCC2)cc1C	2.3	1.4%	-21	3	-4	-0.9
NC(=S)N/N=C1\CC(n2nnnc2-c2ccccc2Cl)C2COC1O2 (stereo unspecified)	0.5	0.8%	0	-1	-2	-1.7
COP(=O)(OC)c1nc(-c2cccc3ccccc23)oc1N1CCCCC1	5.2	-1.4%	28	6	-15	-5.4
CS(=O)(=O)NCc1ccc(C(=O)NC2CCCCC2)cc1	-0.2	0.4%[38.3 µM]	18	3	-4	-0.1
NS(=O)(=O)c1ccc(CNC(=O)c2ccc(S(=O)(=O)NCc3ccco3)cc2)cc1	-0.1	1.8%	4	1	-10	-2.8
Cn1c2c(c(=O)n(C)c1=O)C(c1cccc([N+](=O)[O-])c1)Nc1ccccc1O2 (stereo unspecified)	-0.5	1.7%	5	-4	-6	-3.7
O=C(CSCc1ccccc1)Nc1ccc2c(c1)C(=O)NC2=O	1.8	7.3%	6	-3	-9	6.4
O=C(Cc1ccc(Cl)cc1)Nc1ccc(Cl)cn1	-0.3	1.3%	17	-1	-7	-0.2
CC(=O)c1ccc(S(=O)(=O)Nc2ccc(Cl)c(S(=O)(=O)N3CCCC3)c2)cc1	0.7	0.2%	41	0	3	0.6
Oc1ccc(C[C@H]2CNC(=S)N2CC2CCCN2C[C@H](Cc2ccccc2)N2C[C@H](Cc3ccc(O)cc3)N(CC3CCCCC3)C2=S)cc1 (stereo partly specified)	-0.8	2.7%	-2	-14	-1	8.8
Cc1ccc(NC(=O)CN2C(=O)N/C(=C/c3ccccc3OCc3cccc(C(=O)O)c3)C2=O)cc1	0.7	1.3%	0	?	-6	-0.7
Cc1ccc2c(CC(=O)OCn3nnc4ccccc4c3=O)coc2c1	1.3	0.7%	-8	27	-19	-3.7
O=C(COC(=O)CNC(=O)C1CCCCC1)Nc1ccc(F)c([N+](=O)[O-])c1	0.5	3.6%	2	10	11	-5.8
Cc1ccc(CCNC(=O)C2CCN(S(=O)(=O)c3cccc4nsnc34)CC2)cc1	-0.8	0.2%	-1	0	-9	0.5
CS(=O)(=O)N(Cc1ccc(C(=O)NCCSc2ccccn2)cc1)c1ccccc1	-1.1	0.1%	22	1	-2	-3.4
O=C(O)c1ccccc1Sc1ccccc1S(=O)(=O)NC1CCCCC1	-0.2	0.0%	-3	7	-2	3.4
CC[C@@]1(C(=O)OC)N[C@H](CN(C)C(=O)c2ccc(C(C)(C)C)cc2)[C@@H]2C(=O)N(Cc3ccccc3)C(=O)[C@@H]21	2.3	-1.0%	7	4	2	2.1
COc1cc(NC(=O)c2ccc(NC(=O)N3CCSc4ncccc43)cc2)cc(OC)c1	0.8	-0.1%	19	.	.	.
CS(=O)(=O)Oc1ccc(Br)c2cccnc12	2.3	-1.4%	0	2	5	-3.5
CCOC(=O)/C=c1\s/c(=C\c2ccc(-c3ccccc3)cc2)c(=O)n1CC(=O)NCc1ccc2c(c1)OCO2	-0.1	15%	13	17	0	-2.1
Cc1cc(NC(=O)c2cnn3cccnc23)nn1CC(=O)Nc1cccnc1	0.8	6.0%[38.3 µM]	14	0	-6	-1.2
CCN(CC)c1ccc(NC(=O)COCc2cc(-c3ccc4c(c3)OCO4)on2)c(C)c1	0.2	0.0%	-8	.	.	.
COc1ccc(CNC(=O)c2cc(S(=O)(=O)N3CCOCC3)cn2C)cc1	-0.4	9.8%	4	4	-12	-3.5
CC(=O)Nc1ccccc1C(=O)N1CCN(Cc2ccccc2)CC1	-0.1	-0.8%	-2	-8	-10	0.9
CCOc1ccccc1NC(=O)NS(=O)(=O)c1ccc(C)cc1	-0.5	-1.6%	-4	2	25	4.5
Cc1ccc(S(=O)(=O)/N=C(\c2ccccc2)N(C)S(=O)(=O)c2ccccc2)cc1	0.2	-0.7%	29	5	6	-4.7
CCn1c(=O)c(=O)[nH]c2cc(C(=O)NC3CC3)ccc21	0.9	0.0%	-16	0	-2	-2.5
COc1ccc2cc(CN(Cc3ccco3)Cc3nnnn3C3CCCCC3)c(=O)[nH]c2c1	5.8	-1.9%[38.3 µM]	3	-17	-11	1.6
CC1Cn2cc(C(=O)Nc3cccc(C(F)(F)F)c3)c(=O)c3c(Cl)ccc(c32)O1 (stereo unspecified)	0.5	-0.4%	-14	.	.	.

# (listing goes on)
molecule | TRPML1 agonist | PINK1 modulator | TRPML1 inh | Six1-Eya2 blk | D2 PAM | D2 agonist
O=S(=O)(Nc1ccc(F)cc1Cl)c1ccc(-c2cnc(C3CC3)o2)cc1 | 4.4 | 2.3% | 5 | -2 | -7 | 4.9
C[C@H]1CN([C@@H](C)CO)C(=O)CCCn2nncc2CO[C@@H]1CN(C)Cc1ccccc1 | 0.8 | -1.0% | 31 | 4 | 3 | -4.9
CC(C)(C)SC(C(=O)N1CCOCC1)c1ccc(Br)cc1 (stereo unspecified) | -0.5 | -0.9% | -7 | 2 | -1 | 9.8
Cc1cn([C@H]2C[C@H](O)[C@@H](CNCC3=Cc4cc(O)ccc4OC3)O2)c(=O)[nH]c1=O | . | 0.7% | . | 4 | . | 9.0
OC(c1ccc(CN2CCCCC2)cc1)c1ncc(-c2ccccc2F)[nH]1 (stereo unspecified) | -0.7 | 0.0% | . | -9 | -5 | -2.8
COc1cc(CNC(=O)c2ccc3c(c2)N(C)C(=O)C2CCCCN32)cc(OC)c1OC (stereo unspecified) | 0.7 | 3.0% | 0 | . | . | .
Cc1ccc(S(=O)(=O)c2cccc(S(=O)(=O)N3CCCC3)c2)cc1S(=O)(=O)N1CCCC1 | -0.7 | -27%[38.3 µM] | 19 | 1 | -2 | -0.1
COc1ccc(CCNC(=O)C2C3CCC(C3)C2C(=O)O)cc1OC (stereo unspecified) | 0.6 | -1.6% | -1 | 21 | -3 | 7.2
Cc1c(C(=O)NCc2ccccc2Cl)sc2nc3n(c(=O)c12)CCCCC3 | 2.4 | 2.9% | -20 | . | . | .
COc1ccc(C(=O)NCC(=O)OCC(=O)N2CCCc3ccccc32)cc1 | 1.4 | 0.4% | 21 | 0 | -14 | -1.3
O=C(NCC1CCCCC1)c1cccc([N+](=O)[O-])c1 | 0.4 | 1.4% | -11 | 3 | -5 | -1.9
CCS(=O)(=O)N1CC(=O)N(c2ccc(Cl)cc2)C(C)(C(=O)NC2CCCCCC2)C1 (stereo unspecified) | 1.2 | -1.0% | -18 | . | . | .
CC1(C)CC(=O)C2=C(C1)NC1=C(C(=O)c3ccccc31)C2c1ccccc1 (stereo unspecified) | 0.6 | 2.4% | -9 | ? | -38 | -8.1
COc1ccc(-c2csc(-n3ncc(-c4ccccn4)c3N)n2)cc1 | -0.1 | 1.1% | -14 | -2 | -10 | -6.0
CCOc1ccc(NC(=O)NCCN2CCN(c3cccc(C)c3C)CC2)cc1 | -0.9 | 0.0%&0.0% | -2 | 0 | -23 | -5.5
CCNS(=O)(=O)c1ccc(NS(C)(=O)=O)cc1 | 0.3 | 2.6%[38.3 µM] | -10 | 11 | 3 | 2.6
Cc1ccc(NC(=O)CCOc2ccccc2)c(C)c1 | 0.0 | 0.5% | 3 | -10 | -2 | ?
CC(=O)c1ccc(N2CCN(C(=O)C3CCN(S(=O)(=O)c4cccs4)CC3)CC2)cc1 | 0.7 | 4.2% | 16 | -3 | 6 | 0.3
c1ccc(CCNc2ncnc3c2cnn3-c2ccccc2)cc1 | 0.9 | . | 39 | 3 | 7 | 3.7
CC12CCC(C(N)C1=O)C2(C)C (stereo unspecified) | 0.1 | 3.4% | -4 | 2 | 6 | 1.6

# Ordered by formula weight (highest first): part of the list above
molecule | TRPML1 agonist | PINK1 modulator | TRPML1 inh | Six1-Eya2 blk | D2 PAM | D2 agonist
CC(=O)c1ccc(N2CCN(C(=O)C3CCN(S(=O)(=O)c4cccs4)CC3)CC2)cc1 | 0.7 | 4.2% | 16 | -3 | 6 | 0.3
Cc1c(C(=O)NCc2ccccc2Cl)sc2nc3n(c(=O)c12)CCCCC3 | 2.4 | 2.9% | -20 | . | . | .
Cc1cn([C@H]2C[C@H](O)[C@@H](CNCC3=Cc4cc(O)ccc4OC3)O2)c(=O)[nH]c1=O | . | 0.7% | . | 4 | . | 9.0
c1ccc(CCNc2ncnc3c2cnn3-c2ccccc2)cc1 | 0.9 | . | 39 | 3 | 7 | 3.7

# Additional results follow:
molecule | TRPML1 agonist | PINK1 modulator | TRPML1 inh | Six1-Eya2 blk | D2 PAM | D2 agonist
CCCc1cc(=O)[nH]c(SCC(=O)NC2(C#N)CCCCC2)n1 | 1.6 | 1.1% | 22 | 11 | 0 | -1.3
O=C(CNS(=O)(=O)c1c(Cl)cccc1Cl)N1CCCCCC1 | . | 0.2% | . | 8 | -12 | 2.1
CC(=O)c1ccc(NC(=O)C2CCCN(S(=O)(=O)c3cn(C)cn3)C2)cc1 (stereo unspecified) | 1.7 | -0.5% | -20 | . | . | .
CC1NC(C)c2c(ccc3ccccc23)O1 (stereo unspecified) | 0.0 | 0.2% | -13 | ? | 1 | 9.0
C/C(=N/NC(=O)c1sc(=S)n(C)c1C)c1ccccc1 | 0.5 | 15% | -8 | -2 | -4 | -1.7
CCCC(=O)Nc1ccc2nn(-c3ccc(CC)cc3)nc2c1 | 0.8 | 0.1% | -10 | . | . | .
CCOC(=O)c1c(C)n(CCOc2ccccc2)c2ccc(O)cc12 | -1.2 | 1.3% | 20 | -1 | 1 | 3.5
